# Screening data (PubChem BioAssay)
# MgrA DNA FP: S. aureus MgrA-DNA binding modulation | fluorescence polarization | inhibition, %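 (about 10 µg/mL by stock and volumes)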 | 84,000 compounds, 0.13% hits | AID 602314;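 active = above 50% in either of two replicates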;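 note: 0% = protein plus DNA without compound and 100% = DNA alone without protein; higher means less MgrA bound to DNA so lower polarization; one replicate is shown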
# S aureus helic: S. aureus DNA helicase inhibition. purified S. aureus helicase, fluorescence unwinding assay; about half of the hits fall short of the stated cut. inhibition, %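 (tested at about 80 µM)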. 120,000 compounds, 0.05% hits;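 active = both duplicates at 50% or more, or one of them with a favoured structure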;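 note: 0% = mean of negative control wells and 100% = mean of positive control wells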
# Active calls of the source: *; . = not tested or not shown.
SMILES,MgrA DNA FP,S aureus helic
CC(C(=O)NCc1ccc2c(c1)OCO2)C1Sc2ccccc2NC1=O (centres undefined),.,8
Cc1ccc(Sc2ncccc2NC(=O)C(C)(C)C)cc1,-1.0,.
CC1=NN(c2ccccc2)C(=O)/C1=C/c1ccc(-c2ccccc2)o1,.,21
Cc1ccc(S(=O)(=O)N2CCCC2CO)cc1 (centres undefined),.,10
c1ccc(-c2cnc(CSc3nnc(C4CC4)n3C3CC3)o2)cc1,.,3
C=C(C)C1CCC(C)=C1CC/C(C)=N/NC(N)=O (centres undefined),1.2,9
O=C1N=c2ccc([N+](=O)[O-])cc2=C1c1sc(=S)n(NC(=O)c2cccnc2)c1O,6.9,.
CCOC(=O)c1c(NC(=O)c2cc(OC)c(OC)c(OC)c2)sc(C(=O)Nc2cc(C(F)(F)F)ccc2Cl)c1C,-1.1,.
c1cncc(CNC2C3CC4CC(C3)CC2C4)c1 (centres undefined),-6.8,16
CCCCN1C(=O)C2NN=C(C(=O)OC)C2C1=O (centres undefined),0.0,5
Cc1ccc(O)c(C2=Nc3ccccc3N=C(C(F)(F)F)C2)c1,-0.4,-16
CCN(CC)C(=O)C[n+]1cccc(C(N)=O)c1,.,22
CN1C(=O)/C(=N\N=C\c2c(O)[nH]c(=O)[nH]c2=O)c2ccccc21,.,-12
CCn1c(=O)c(=O)[nH]c2cc(C(=O)Nc3cc(Cl)c(N)c(Cl)c3)ccc21,.,-9
CC(C)(C)C1(C)OC(C(N)=O)C(C(N)=O)O1 (centres undefined),.,5
Cn1c(COc2ccc(Cl)cc2)nnc1SCCN1C(=O)c2ccccc2S1(=O)=O,.,-11
Cc1nc(C)c(-c2ccn[nH]2)s1,.,-9
CCOC(=O)c1c(NC(NC(=O)C(C)C)C(Cl)(Cl)Cl)sc(C(=O)Nc2ccccc2)c1C (centres undefined),-0.4,.
Cc1c(Br)sc2ccc(Cl)cc12,3.6,.
c1ccc(-c2ccc(C(c3ccccc3)n3ccnc3)cc2)cc1 (centres undefined),3.4,.
CN1CCN(CCOCCOc2ccc(Cl)c(Cl)c2)CC1,-0.5,-5
CC1(C)Cc2cccc(OCc3nc4ccccc4[nH]3)c2O1,-6.2,4
O=C(COC(=O)c1cc(Cl)ccc1O)c1ccc(S(=O)(=O)N2CCCCC2)cc1,.,-8
O=S(=O)(NNc1ccccc1)c1cccs1,.,8
Cc1ccc(CNC(=O)c2ccc(Cl)c(S(N)(=O)=O)c2)n1C,.,-9
Cc1sc2nc(SCC(=O)c3ccc(O)c(O)c3)[nH]c(=O)c2c1C,6.0,21
CC1CCN(c2ccc(N3CCN(S(C)(=O)=O)CC3)nn2)CC1,.,10
N#CCc1ccc(NC(N)=O)cc1,2.1,.
NC(=O)c1nnc(C(Nc2ccc(F)cc2)c2cccc(Cl)c2)o1 (centres undefined),.,-23
FC(F)(F)c1cc(-c2ccco2)nc2c(-c3ccccc3)cnn12,.,-24

# Compound profiles, as listed above.
# NC(=O)c1nnc(C(Nc2ccc(F)cc2)c2cccc(Cl)c2)o1 (centres undefined) across the screens: MgrA DNA FP: .; S aureus helic: -23
# FC(F)(F)c1cc(-c2ccco2)nc2c(-c3ccccc3)cnn12 across the screens: MgrA DNA FP: .; S aureus helic: -24

# Next section.
SMILES,MgrA DNA FP,S aureus helic
Cc1ccc2cc3cc(C(=O)N4CCCC4)oc3nc2c1,.,-5
COc1ccc(OC)c2[nH]c(=O)c(CCNC(=O)C(C)C)cc12,.,8
Cc1ccc(NC(=O)c2c3c(nc4ccccc24)CCCC3)cc1,-4.5,15
Cc1nnsc1C(=O)OCc1cc(F)cc(F)c1,-2.7,.
Cc1c(NC=C(C#N)C#N)c(=O)n(-c2ccccc2)n1C,0.0,-2
Cc1ccc(-c2csc(C3=C(O)CN(C4CCCC4)C3=N)n2)cc1,.,3
Cc1[nH]n(-c2cccc(Cl)c2)c(=O)c1N=O,2.8,.
O=c1[nH]cc(NCc2ccccc2)c(=O)[nH]1,-8.4,.
CCOC(=O)C1C(=O)C=C(Nc2sc3c(c2C#N)CCCC3)CC1c1cccc(OC)c1 (centres undefined),2.2,3
Cc1ccc(C(O)c2nccn2C)o1 (centres undefined),-5.7,4
Cc1cc(C)c(N=Cc2nc(-c3ccccc3)oc2O)c(C)c1,-0.5,-20
CC1(C)CC(=O)c2cnc(NC3OC(=O)c4ccccc43)nc2C1 (centres undefined),-0.5,4
C=CCN(CC=C)S(=O)(=O)c1ccc(NC(=O)c2cccs2)cc1,1.0,1
CCNC(=O)CN1C(=O)COc2ccc(C)cc21,-3.4,5
N#Cc1cc2ccccc2oc1=O,-0.3,.

# In the list so far, these contain an aryl thioether with sulfur outside any ring.
SMILES,MgrA DNA FP,S aureus helic
Cc1ccc(Sc2ncccc2NC(=O)C(C)(C)C)cc1,-1.0,.
c1ccc(-c2cnc(CSc3nnc(C4CC4)n3C3CC3)o2)cc1,.,3
Cn1c(COc2ccc(Cl)cc2)nnc1SCCN1C(=O)c2ccccc2S1(=O)=O,.,-11
Cc1sc2nc(SCC(=O)c3ccc(O)c(O)c3)[nH]c(=O)c2c1C,6.0,21

# Further results follow:
SMILES,MgrA DNA FP,S aureus helic
O=C1CCCC(O)=C1N=Nc1cc(C(F)(F)F)ccc1OCC(F)(F)F,.,-18
CC(=O)Nc1ccc(NC(=O)C2CC(C)=CCC2C(=O)O)cc1 (centres undefined),.,14
Cc1noc2ncn(CC(=O)NCc3ccco3)c(=O)c12,.,22
COCCn1c(N)c(N(Cc2ccccc2)C(=O)C2CC3C=CC2C3)c(=O)[nH]c1=O (centres undefined),.,-1
CC(=NCCc1c(C)[nH]c2ccccc12)c1c(C)[nH]n(-c2nc3ccccc3s2)c1=O,0.6,14
CC1CN(C(=O)COC(=O)CC2c3ccccc3CCN2S(=O)(=O)c2ccccc2)CC(C)O1 (centres undefined),.,8
CCOC(=O)c1c(N)sc2c1CCCCC2,.,8
O=c1c2ccccc2nc(SCc2ccc3c(c2)OCO3)n1-c1ccccc1,-1.2,1
CCOC(=O)c1cc(NC(=O)N(CC)C2CCCCC2)c(C)nc1C,.,-1
CC(C)n1c(CN2CCN(c3cccc(Cl)c3)CC2)nc2c1c(=O)n(C)c(=O)n2C,.,22
CCOC(=O)c1c(NC(=O)Cc2ccc(OC)cc2)sc(C(=O)Nc2cc(C(F)(F)F)ccc2Cl)c1C,-1.5,.
COc1cccc(NS(=O)(=O)c2ccc(CN3C(=O)c4cccnc4C3=O)cc2)c1,.,26
Cc1ccc2c(CC(=O)OCc3cc(Cl)cc4c3OCOC4)coc2c1,.,-2
CCOC(=O)c1c(CN2CCOCC2)n(-c2ccccc2)c2cc(Br)c(OC)cc12,-2.7,.
Cc1ccc2oc(=O)c3cnn(CC(=O)Nc4cccnc4)c3c2c1,-1.6,8

# Looked up by compound from the list above:
SMILES,MgrA DNA FP,S aureus helic
O=c1c2ccccc2nc(SCc2ccc3c(c2)OCO3)n1-c1ccccc1,-1.2,1
CC(=NCCc1c(C)[nH]c2ccccc12)c1c(C)[nH]n(-c2nc3ccccc3s2)c1=O,0.6,14
CCOC(=O)c1c(NC(=O)Cc2ccc(OC)cc2)sc(C(=O)Nc2cc(C(F)(F)F)ccc2Cl)c1C,-1.5,.
COc1cccc(NS(=O)(=O)c2ccc(CN3C(=O)c4cccnc4C3=O)cc2)c1,.,26

# Further compounds.
SMILES,MgrA DNA FP,S aureus helic
CCOc1ccc(Nc2c(S(=O)(=O)c3ccccc3)cnc3ccc(OCC)cc23)cc1,8.2,0
CC(C)NC(=O)COc1ccc(-c2nn(C)c(=O)c3ccccc23)cc1,.,-7
CC(C)(CC(=O)O)CC(=O)NC1Cc2ccccc2C1,-1.3,.
CCOC(=O)c1c(C)c(C#N)c(NC(=O)c2ccc(Cl)cc2Cl)n1-c1ccc(C)cc1,-0.8,.
Nc1cc(-c2ccccc2)[nH]n1,-2.0,-24
CCOC(=O)c1c(C)c(C(=O)NCc2ccccc2)c(C)n1C,.,-27
O=C(Nc1ccc2ncsc2c1)c1ccc(S(=O)(=O)N2CCCC2)cc1,-1.0,.
COc1ccc(C2CC(=O)n3nc(-c4ccccc4)nc3S2)cc1OC (centres undefined),1.6,9
COc1ccc(CSc2nnc(SC(C)C(N)=O)s2)cc1 (centres undefined),.,-7
Cc1ccc(C)c(OCC(=O)Nc2ccccc2C#N)c1,1.1,7
Nc1cc(=O)[nH]c(SCCC(=O)O)n1,.,16
COc1ccc2c(COC(=O)CNS(=O)(=O)c3ccccc3)cc(=O)oc2c1,.,-4
O=C(O)CC(Nc1ncnc2ccccc12)C(=O)O (centres undefined),.,1
Clc1cccc(-c2nnc(-c3ccccc3)o2)c1,3.2,2
Cc1cc(C(=O)NCc2ccc(N3CCN(C)CC3)cc2)nn1C,.,-6
Cc1ccc(S(=O)(=O)N2CCCC2C(=O)Nc2nc3ccccc3s2)cc1 (centres undefined),.,8
O=C(CSC(=O)c1ccccc1)Nc1ccc2ccccc2c1,1.2,-21
CCC(C)NS(=O)(=O)c1ccc(-n2cnnn2)cc1 (centres undefined),0.5,2
Cc1ccccc1-c1noc(CSc2ncccn2)n1,.,8
c1ccc(-c2nnc(-c3ccccn3)nc2-c2ccccc2)cc1,-2.9,.
O=C(/C=C/c1ccco1)Nc1cccc(C(F)(F)F)c1,.,8
CCn1c(SCC(=O)N(C)CC(=O)Nc2ccccc2Cl)nnc1-c1ccco1,.,9
N#CCc1ncc(CSc2nc3ccccc3[nH]2)s1,.,-22
Cn1c(-c2cccs2)c(CNC(=O)NCc2ccccc2)c2ccccc21,.,-6
O=C(C(Sc1nnc(C2CC2)n1C1CC1)c1ccccc1)N1CCOCC1 (centres undefined),.,14
COc1ccc(OC)c2[nH]c(=O)c(CCNC(=O)c3ccc(F)c(F)c3)cc12,.,-17
CCOC(=O)N1CCC(NC(=O)c2cc3cc4ccc(OC)cc4nc3o2)CC1,.,-31
O=C(COC(=O)c1ccc(Cl)cc1)NC1CC1,.,13
C=CCNC(=O)C(C)(C)Oc1ccc(Cl)cc1,-3.4,5
O=C(O)C1CC=CCC1C(=O)N(Cc1ccccc1)c1ccccc1 (centres undefined),0.1,11
O=C(Cn1nc(-c2ccccc2)c2cc(Cl)ccc21)NC1CC1,.,14
CCn1c(-c2cccs2)c(CN(CCOC)C(=O)Nc2ccccc2)c2ccccc21,.,9
CCOC(=O)Nc1ccc2c(CN(C)CC(=O)Nc3cccc(C)c3C)cc(=O)oc2c1,.,-15
COc1ccc(CCC(=O)Nc2n[nH]c3nc4cc(OC)ccc4cc23)cc1,-0.8,4
Cn1ncc(Br)c1NC(=O)c1ccco1,-0.1,.
O=C1CCC(=O)N1CCn1c2ccccc2c2nc3ccccc3nc21,.,14
CC(=O)OCC1OC(n2ccc3ccccc32)C(OC(C)=O)C(OC(C)=O)C1OC(C)=O (centres undefined),0.5,-1
N#Cc1c(SCC(=O)c2ccc(F)cc2)nsc1SCC(=O)c1ccc(F)cc1,1.6,.
CC1(C)CC(=O)c2c(NCc3ccco3)sc(C#N)c2C1,-0.9,.
CC(C)(C)C(=O)CSc1n[nH]c(=O)n1-c1ccccc1C(F)(F)F,-3.2,.
NNC(=S)Nc1ccc(C(F)(F)F)cc1Cl,.,-25
Cc1cc(NCCN2CCCCC2)c2ccc3ccccc3c2n1,30,35
O=C(COc1ccc(Cl)cc1)NCc1n[nH]c(=S)n1-c1cccc(Cl)c1,0.5,14
CCc1nnc(NC(=O)c2sc3nc4ccc(OC)cc4cc3c2N)s1,3.1,-4
Cc1cc(=O)oc2cc(OCC(O)CN(C)C3CCCCC3)ccc12 (centres undefined),.,-7
CCCNS(=O)(=O)c1ccc2c(c1)CCCN2C(C)=O,0.6,1
S=c1[nH]c2ccccc2n1CCOc1ccccc1,7.8,-3
O=C(Nc1ccc(O)c(-c2nc3ccccc3o2)c1)c1ccccc1,.,-10
Cc1nn(-c2ccccc2)c(C)c1/C=C/C(=O)OCC(=O)c1cccs1,.,4
COc1ccc(-c2nnc3sc(-c4ccc(Br)o4)nn23)cc1,.,21
Cn1nnnc1SCC(=O)NC(=O)Nc1ccc2c(c1)OCCO2,.,10
C=CCSC1=C(C#N)C(c2ccccc2)CC(=O)N1 (centres undefined),.,-8
Cc1ccc(-c2cc(C(=O)N3CCC(C(N)=O)CC3)c3ccccc3n2)cc1,1.1,13
Cn1cc(Cl)c(C2NN=C(SCC(=O)c3ccc(Cl)cc3)S2)n1 (centres undefined),-1.1,.
Cc1cnc(NS(=O)(=O)c2cccc3nonc23)c(Br)c1,.,-1
O=C1NC(=Nc2ccc(O)cc2)S/C1=C\c1cccc(O)c1,.,-32
COc1ccc(-c2nc(SCC(=O)CSc3n[nH]c(-c4ccc(OC)cc4)n3)n[nH]2)cc1,-2.7,2
Cc1ccc(Nc2nc(/N=C/N(C)C)n[nH]2)cc1C,-0.7,6
CC1=C(C(=O)Nc2ccc(C)cc2)C2(CCCCC2)OC1=O,-0.3,18
O=S(=O)(Nc1ccc(O)c(Sc2nc3ccccc3s2)c1)c1ccccc1,3.9,10
# Remaining list, next part
SMILES,MgrA DNA FP,S aureus helic
Cc1nnc2ccc(NCc3ccccc3)nn12,.,2
CCOC(=O)c1c(C)n(-c2ccc(C)cc2C)c2ccc(OC(=O)/C=C/c3ccccc3)cc12,1.7,.
Cc1snc(SCc2c(F)cccc2Cl)c1C#N,0.2,.
O=C(O)CCNc1ncnc2ccc(Br)cc12,.,-37
CC(/C=C/c1cccnc1)=C\C(=O)O,.,-23
S=C(NCCN1CCOCC1)NC1CCSc2ccccc21 (centres undefined),.,5
O=C(CC1OCCN(Cc2ccccc2)C1=O)Nc1ccc(Br)cc1Br (centres undefined),2.1,-1
Cc1ccc(-c2csc3ncnc(Sc4nnc(CN5CCCCCC5=O)o4)c23)cc1,.,-1

# An excerpt, so the mix of outcomes need not match the whole.
